Compound activity: PubChem BioAssay, Johns Hopkins Ion Channel Center
KCNQ2 enhance: KCNQ2 (rat) channel potentiation; O88943; B-score at 10 µM; 0.54% of 310,000 active; CHO-K1 KCNQ2, FluxOR thallium flux fluorescence; hits give high values;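 active = fluorescence ratio B-score at least 3 SD of library B-scores, with initial fluorescence B-score within 3 SD, cut at about 5.3 in these data; same plate scores as AID 2156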;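 note: B-score of peak minus minimum over baseline fluorescence ratio after K+ and Tl+ stimulus; positive B-score means potentiation of KCNQ2 with more thallium influx and brighter signal; only the inactives scoring about 0 or higher are listed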
Target sequence (O88943 whole entry, looked up): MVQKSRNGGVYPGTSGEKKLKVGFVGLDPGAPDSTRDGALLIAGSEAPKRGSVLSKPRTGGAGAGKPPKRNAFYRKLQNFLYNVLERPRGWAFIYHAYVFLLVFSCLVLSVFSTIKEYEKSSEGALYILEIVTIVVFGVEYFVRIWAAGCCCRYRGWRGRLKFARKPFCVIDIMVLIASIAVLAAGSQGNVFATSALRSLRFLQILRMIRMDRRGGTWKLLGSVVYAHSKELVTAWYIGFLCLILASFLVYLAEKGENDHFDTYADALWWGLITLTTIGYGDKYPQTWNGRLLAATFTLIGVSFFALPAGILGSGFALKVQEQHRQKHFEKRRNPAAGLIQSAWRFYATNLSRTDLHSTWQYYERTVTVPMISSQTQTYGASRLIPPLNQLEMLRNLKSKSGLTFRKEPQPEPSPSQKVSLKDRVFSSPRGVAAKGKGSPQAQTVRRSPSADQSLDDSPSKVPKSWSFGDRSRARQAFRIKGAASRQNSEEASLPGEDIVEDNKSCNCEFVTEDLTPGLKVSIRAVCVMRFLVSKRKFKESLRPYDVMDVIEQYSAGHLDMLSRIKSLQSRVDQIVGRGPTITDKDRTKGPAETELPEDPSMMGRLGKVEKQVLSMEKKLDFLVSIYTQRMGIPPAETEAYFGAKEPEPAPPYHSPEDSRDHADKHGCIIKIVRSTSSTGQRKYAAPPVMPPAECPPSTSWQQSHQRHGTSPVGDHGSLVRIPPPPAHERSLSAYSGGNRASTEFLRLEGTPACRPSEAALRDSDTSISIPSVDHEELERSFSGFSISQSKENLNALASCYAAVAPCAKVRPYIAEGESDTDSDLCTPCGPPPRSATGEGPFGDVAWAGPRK
KCNQ2 enhance baseline: recorded beside KCNQ2 enhance, whose call it bears; B-score; compound at 10 µM; measured here: initial fluorescence intensity artifact check;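 brightness before thallium and not channel activity; 0 = typical well and far values either way flag optical interference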
The depositor's hits bear a star.

nr | structure | KCNQ2 enhance | KCNQ2 enhance baseline
1 | COc1ccc(-c2c(C)n([O-])c3c([n+]2=O)CCCC3)cc1OC | 1.2 | 0.43
2 | COc1ccc(OC)c(NC(=O)Nc2cc(C(=O)O)ccc2C)c1 | 0.53 | 0.24
3 | Cc1ccc(C(=O)N2CCN(c3ccccn3)CC2)cc1Cl | 0.3 | -0.61
4 | COc1ccccc1C(=O)Nc1nc(N)n(-c2ccccc2)n1 | 1 | 1.4
5 | O=c1[nH]n(-c2ccc(Cl)cc2)c2ncccc12 | 3.1 | -0.6
6 | Cc1nn(C)c(C)c1NS(=O)(=O)c1ccc(Cl)cc1 | 0.1 | 1.8
7 | Nc1cccc(C(=O)Nc2ccc3nc(-c4cccnc4)[nH]c3c2)c1 | 0.14 | -0.37
8 | Cc1nn(C)cc1CN(C)C(=O)c1nn2c(c1Br)NC(c1cccs1)CC2C(F)(F)F (configuration not stated) | 1.4 | -1.4
9 | CC(=O)c1cccc(N2C(=O)C3C(C(=O)Nc4cc(C)on4)C4(C)C=CC3(O4)C2C(=O)NC(C)(C)C)c1 (configuration not stated) | 0.01 | 1.1
10 | FC(F)(F)c1cccc(-c2nnc3ccc(C(F)(F)F)cn23)c1 | 0.02 | -0.16
11 | CCNC(=O)OCC(CC)NC(=O)OCC(C)C (configuration not stated) | 1.8 | 2
12 | Cc1nc(NC(=O)/C=C/c2ccc(F)cc2)sc1C(=O)N(C)C | 0.81 | 0.49
13 | COCCN1C(=O)c2ccc(C(=O)O)cc2C1=O | 0.7 | -1.3
14 | CCCc1nnc2c(N(C)S(=O)(=O)c3ccc(C)cc3)nc3ccccc3n12 | 0.15 | -0.86
15 | CCCCOC(=O)c1cc(=O)[nH]c2ccccc12 | 0.72 | 0.04
16 | COC(=O)c1ccccc1NC(=O)c1cccc(NC(=O)CSCc2ccccc2)c1C | 0.02 | 0.03
17 | O=[N+]([O-])c1ccc2nccn2c1 | 0.76 | -0.23
18 | CCOC(=O)C1(Cc2ccccc2)CCN(Cc2cc(=O)c3ccccc3[nH]2)CC1 | 1.1 | 0.04
19 | CN(CC(=O)Nc1ccc(Cl)cc1)C(=O)CNC(=O)c1ccc(Br)o1 | 0.63 | -0.91
20 | COC(=O)C(C)Sc1nc(N)c(NC(=O)c2ccco2)c(=O)[nH]1 (configuration not stated) | 0.39 | -1.3
21 | COc1ccc(C(=O)NC(=S)Nc2ccc(S(=O)(=O)Nc3cc(OC)ncn3)cc2)cc1 | 0.62 | 1
22 | CC(=O)N(C)N1c2ccccc2CCc2ccccc21 | 0.18 | -0.86
23 | COc1ccc(-c2cnnc(N/N=C/c3ccc(O)c(O)c3)n2)cc1 | 2 | -0.8
24 | CC(=O)Nc1ccc(S(=O)(=O)N(Cc2ccccc2)c2ccccc2F)cc1 | 0.68 | 0.02
25 | c1ccc2cc(CN3CCOCC3)ccc2c1 | 1.2 | -0.52
26 | O=C(c1cc2ccccn2n1)N1CCN(c2ccccn2)CC1 | 0.3 | 1.4
27 | Cn1c(SCc2ccc(Br)cc2)nnc1-c1ccncc1 | 0.66 | 0.34
28 | Cc1ccc(-c2nc(N)sc2CC(=O)OCC(=O)NCCC(C)C)cc1 | 0.11 | -0.52
29 | CNC(=O)c1cccn1-c1ccsc1C(=O)OC | 0.65 | -0.45
30 | O=S(=O)(c1ccccc1)c1nnn2c1nc(NC1CCN(Cc3ccccc3)CC1)c1cc(Cl)ccc12 | 0.45 | -0.13

6 entries already listed, arranged by molecular weight, largest number first.
nr | structure | KCNQ2 enhance | KCNQ2 enhance baseline
16 | COC(=O)c1ccccc1NC(=O)c1cccc(NC(=O)CSCc2ccccc2)c1C | 0.02 | 0.03
24 | CC(=O)Nc1ccc(S(=O)(=O)N(Cc2ccccc2)c2ccccc2F)cc1 | 0.68 | 0.02
10 | FC(F)(F)c1cccc(-c2nnc3ccc(C(F)(F)F)cn23)c1 | 0.02 | -0.16
1 | COc1ccc(-c2c(C)n([O-])c3c([n+]2=O)CCCC3)cc1OC | 1.2 | 0.43
6 | Cc1nn(C)c(C)c1NS(=O)(=O)c1ccc(Cl)cc1 | 0.1 | 1.8
15 | CCCCOC(=O)c1cc(=O)[nH]c2ccccc12 | 0.72 | 0.04

The results go on.
nr | structure | KCNQ2 enhance | KCNQ2 enhance baseline
31 | CCOC(=O)N1CCC2(CC1)C(C#N)=C(N)Oc1n[nH]c(C)c12 | 0.43 | 0.79
32 | CC(C)N(Cc1cc2ccccc2[nH]c1=O)C(=O)c1ccco1 | 0.4 | 0.04
33 | Oc1ccc(-c2cccc(-c3ccc(O)cc3)n2)cc1 | 0.5 | -0.58
34 | CC1CCCC(C)N1C(=O)C1CC(c2ccc(F)cc2)=NO1 (configuration not stated) | 0.55 | 0.16
35 | C=CCOc1cccc(C2/C(=C(\O)c3ccc4c(c3)OCCO4)C(=O)C(=O)N2CCN2CCOCC2)c1 (configuration not stated) | 1.7 | -1.1
36 | O=C(c1ccco1)N1CCN(C(=O)c2cccs2)CC1 | 0.57 | 0.23
37 | CNC(=S)N1N=C(c2cccs2)CC1c1ccc(F)cc1 (configuration not stated) | 0.84 | -4.4
38 | Nc1nnc(COc2ccccc2)s1 | 0.75 | -0.76
39 | COC(=O)c1ccc(NC(=O)CCC(=O)c2ccc(F)cc2)cc1 | 0.07 | 1.1
40 | COCCNC(=O)c1cccc(NC(=O)C2=C(C)OCCS2)c1 | 0.52 | 0.3
41 | Cc1nc(CN(C)C(=O)c2ccccc2OC2CCN(S(C)(=O)=O)CC2)cs1 | 0.05 | -1.6
42 | Cc1nnc(NC(=O)CSCc2c(C)noc2C)s1 | 1.3 | 0.89
43 | COc1cccc(C2=NO[C@@H]3C(=O)N(c4ccc5c(c4)OCCO5)C(=O)[C@H]23)c1OC | 0.19 | -0.39
44 | CS(=O)(=O)Nc1cccc(C(=O)CC2(O)C(=O)Nc3ccccc32)c1 (configuration not stated) | 1.4 | -1
45 | CN(C)c1ccc(C2Nc3ccccc3C(=O)N2CCCN2CCOCC2)cc1 (configuration not stated) | 0.01 | 0.72
46 | Cc1ccccc1-c1nc(CS(=O)(=O)CC(=O)NCCCN2C(C)CCCC2C)c(C)o1 (configuration not stated) | 1.8 | -0.53
47 | CCCCn1c(Cc2ccccc2)nnc1SCC(=O)N1CCOCC1 | 1.4 | 1.7
48 | O=C(/C=C/c1ccc(Cl)cc1)NC1CCS(=O)(=O)C1 (configuration not stated) | 0.94 | -1.1
49 | O=C(NCc1ccccc1)c1ccc(Cl)cc1 | 0.38 | 0.02
50 | O=C(Cn1c(C(F)(F)F)nc2ccccc21)OCC(=O)c1c[nH]c2ccccc12 | 0.82 | -1.8
51 | CSc1ccc(/C=N/NC(=O)CN2CCN(Cc3ccccc3)CC2)cc1 | 0.74 | 0.82
52 | O=C(NC1CCCC1)C(c1ccco1)N(C(=O)c1csnn1)c1ccccc1 (configuration not stated) | 1 | 0.29
53 | COc1cccc(NC(=S)N(CCCN2CCCC(C)C2)Cc2cccs2)c1 (configuration not stated) | 0.89 | 0.96
54 | O=C(O)C1=C[C@@H](c2ccc(C(F)(F)F)cc2)C[C@@H](OCCCCO)O1 | 0.51 | 0.95
55 | O=C(CN1CCOCC1)Nc1ncc(Cc2cccc(Cl)c2Cl)s1 | 1.2 | -0.45
56 | c1ccc(-c2noc(CCC3CCCC3)n2)cc1 | 0.01 | 0.1
57 | CC(OC(=O)CCSc1ccccc1)C(=O)Nc1ccc(S(N)(=O)=O)cc1 (configuration not stated) | 0.2 | -1.1
58 | O=c1c2cc(Br)ccc2nc(-c2cccc(C(F)(F)F)c2)n1O | 28* | -0.43*
59 | CCOC(=O)c1c(NC(=O)CSC(=S)N(C)C)sc(C)c1C | 0.24 | -0.03
60 | Cc1cc(N/C=C(\C#N)S(=O)(=O)c2ccccc2Cl)nc(C)n1 | 2.1 | 0.14

Other records:
entry	SMILES	KCNQ2 enhance	KCNQ2 enhance baseline
61	N#Cc1cnc(Nc2ccc(F)cc2)nc1N	0.39	-0.02
62	O=C(CSc1c[nH]c2ccccc12)NCC1CCCO1 (configuration not stated)	0.03	-1.2
63	CCOC(=O)c1cnn(-c2nc(OC)cc(OC)n2)c1C(F)(F)F	0.41	-0.1
64	Cc1nc(COC(=O)c2ccc(CO)cc2)cs1	0.23	1.4
65	Cc1cc(C)nc(SCCCNCc2ccc(Br)cc2)n1	0.38	0.07
66	O=C(CCCc1ccccc1)NCCC1=CCCCC1	1.2	0.65
67	CC(C)n1c(SCC(=O)N2CCN(C)CC2)nc2c1c(=O)n(C)c(=O)n2C	0.76	0.12
68	CCC(C)NC(=O)c1ccc2nc(Cc3ccc(OC)cc3)oc2c1 (configuration not stated)	2.5	-1.2
69	CCCCOc1ccccc1C1NC(=O)NC(C)=C1C(=O)OCCOC (configuration not stated)	0.59	-0.04
70	O=C(O)/C=C\C(=O)Nc1ccccc1F	0.43	-1.1
71	CCOc1ccc2c(c1)c1nnc(SCC(=O)N3CCC(C)CC3)nc1n2C	2.1	-1.6
72	Cc1csc(SCCN2C(=O)c3ccccc3C2=O)n1	0.1	0.16
73	CN(C)C(=O)c1ccc(NC(=O)CSc2nc3ccccc3[nH]2)cc1	1.1	1.5
74	Cn1c(SCc2ccc(C#N)cc2)nnc1-c1ccncc1	0.8	-2.6
75	S=C(NCc1ccncc1)Nc1ccc(Cl)cc1Cl	0.08	0.01
76	COc1cccc(NC(=O)CCN2C(=O)c3cccc([N+](=O)[O-])c3C2=O)c1	0.27	-0.02
77	O=S(=O)(NCc1ccco1)c1ccc(Cl)nc1	1.5	-0.21
78	CN(C)C=NC(=O)c1cc(C(=O)c2ccc(Cl)cc2Cl)c[nH]1	0.06	0.24
79	O=C(O)c1ccc(CSc2ncnc3c2cnn3Cc2ccccc2)cc1	0.83	-0.07
80	O=C(CNS(=O)(=O)c1ccc(F)cc1)N1CCCC1	1.9	-0.58
81	NC(=O)COc1c(-c2ccco2)oc2ccccc2c1=O	1.4	-2.8
82	O=C(c1cnn(-c2ccccc2)c1)c1cc(F)ccc1O	0.47	0.7
83	COc1ccccc1NC(=O)N(CCN1CCOCC1)Cc1cc2cc(C)cc(C)c2[nH]c1=O	0.43	0.65
84	COc1ccc(-c2nc(C#N)c(N3CCC(C(N)=O)CC3)o2)cc1OC	0.08	-1
85	CCn1ncc(N(C)N)c(Cl)c1=O	0.49	1
86	COc1cc(C(=O)Oc2ccccc2)ccc1OCc1c(C)noc1C	0.72	0.66
87	COc1ccc(S(=O)(=O)N2CCC(C(=O)Nc3cccc(C(C)=O)c3)CC2)cc1	0.18	1.4
88	Cc1ccccc1C(OCCN(C(C)C)C(C)C)c1ccccc1 (configuration not stated)	0.37	-1.7
89	O=C(CC1SC(=NCC2CCCO2)NC1=O)Nc1cc([N+](=O)[O-])ccc1Cl (configuration not stated)	0.63	-0.2
90	O=C(NCc1ccco1)c1noc2c1CCCC2	0.28	1.5

Single records (already shown).
`O=C(CSc1c[nH]c2ccccc12)NCC1CCCO1` (configuration not stated) is entered as KCNQ2 enhance = 0.03; KCNQ2 enhance baseline = -1.2
`CN(C)C=NC(=O)c1cc(C(=O)c2ccc(Cl)cc2Cl)c[nH]1` is entered as KCNQ2 enhance = 0.06; KCNQ2 enhance baseline = 0.24
`CC(C)n1c(SCC(=O)N2CCN(C)CC2)nc2c1c(=O)n(C)c(=O)n2C` is entered as KCNQ2 enhance = 0.76; KCNQ2 enhance baseline = 0.12

(more compounds)
entry	SMILES	KCNQ2 enhance	KCNQ2 enhance baseline
91	Cc1cccc(NC(=O)CCNC(=O)c2ccccc2)c1	1.3	0.82
92	COc1ccc(C(=O)N(Cc2sccc2C)C2CCS(=O)(=O)C2)cc1 (configuration not stated)	1.6	-0.24
93	Cc1ccc(C(=O)Oc2ccc(-c3nccc(-c4ccccn4)n3)cc2)cc1	1.1	2.1
94	CC(C)(C)NC(=O)c1nn(Cc2ccccc2)c(=O)c2ccccc12	0.16	-0.31
95	Cc1c(C)c2cc(Cl)c(OC(C)C(=O)NCCN3CCOCC3)cc2oc1=O (configuration not stated)	0.03	1.9
96	N#C/C(=C/c1cccc(C(F)(F)F)c1)c1nc(CCN2C(=O)c3ccccc3C2=O)cs1	0.36	0.35
97	COc1ccc(C(=O)ON=C2C=C(C)C(=O)C(C)=C2)cc1	1.1	-0.47
98	O=C(CN1C(=O)c2ccccc2S1(=O)=O)NCCSC1CCCCC1	2.9	-0.45
99	CCc1cc(OCCCSc2nc(C)cc(=O)[nH]2)ccc1Cl	0.27	-1.6
100	O=C(CCCOc1ccc(Cl)cc1)Nc1ccc(N2CCOCC2)cc1	3.5	-0.39
101	Cc1ccc(N2CC(C(=O)NCc3cccs3)CC2=O)cc1 (configuration not stated)	0.51	0.62
102	CCOC(=O)c1ccc(NC(=O)c2ccc3c(c2)C(=O)N(Cc2cccnc2)C3=O)cc1	1.8	-1.5
103	COc1ccc(-n2nc3cc(C)c(NC(=S)NC(=O)c4ccccc4C)cc3n2)cc1	0.72	-0.06
104	OCC(CO)(CO)N=Cc1cc(Br)ccc1O	3.4	2.2
105	O=C(C1CCC(=O)N(C2CCCC2)C1)N1CCC(Oc2cccc(F)c2)CC1 (configuration not stated)	0.43	2.1
106	COCCCn1c(=N)c(C(N)=S)cc2c(=O)n3cccc(C)c3nc21	0.14	-0.51
107	CC(C)n1cc(CN2CCCC(CO)(Cc3cccc(Cl)c3)C2)cn1 (configuration not stated)	2.3	-2.1
108	COc1ccc(C(=O)Nc2ccc(NC(=O)c3ccccc3F)cn2)cc1	0.26	0.43
109	CCC1COCCS(=O)(=O)N1Cc1cccc(Cl)c1 (configuration not stated)	0.49	-0.03
110	Cc1ccc(S(=O)(=O)CC(=O)c2cc3cccc(C)c3oc2=O)cc1	1.4	-2
111	COc1cc2c(cc1OC)CN(C(=O)C1CCC(=O)N(CCCN3CCOCC3)C1)CC2 (configuration not stated)	0.15	0.63
112	Cc1ccc(NC(=S)NCc2ccc3c(c2)OCO3)cc1	4.1	-0.79

Not all compounds are listed; rates above refer to the full screens.
